Source: PubChem BioAssay
PINK1 expr mod = A Quantitative High throughput Screen to Identify Chemical Modulators of PINK1 Expression; PINK1 immunofluorescence, high-content cytometry, 24 h; Potency, µM (top dose mostly 76.6 µM), for the others: at the top dose activation (PINK1 increase), usual class: activators; 410,000 tested, 0.2% active; active = well fitted activation curve with a large enough effect; inconclusive = small, poorly fitted or top-dose-only effect; inactive = flat fitted curve, though single readings scatter; cell line not stated here;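 note: potency is the fitted concentration of half-maximal effect; % of control where 0% means no effect; nearly all actives have a fitted effect of over 65% in size; a mitochondrial uncoupler was the plate control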
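A stable cell line was treated with compounds at 5 concentrations for 24 hours, with CCCP as control. PINK1 levels and mitochondrial localization were measured by immunofluorescence with mitochondrial, cell and nuclear markers after fixation, read by laser-scanning cytometry.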
Sfp inh = qHTS Assay for Inhibitors of Bacillus subtilis Sfp phosphopantetheinyl transferase (PPTase); Biochemical Sfp PPTase activity, qHTS; Potency, µM, for inactives: max response, negative = inhibition, actives largely listed as inhibitors; 310,000 tested, 3.5% active; AID 1490, 2009; 4'-phosphopantetheinyl transferase ffp (Bacillus subtilis), Q9F4F7; active = well fitted inhibition curve with a large enough effect; inconclusive = small, poorly fitted or top-dose-only effect, or another doubt; inactive = no such curve, though single readings can be large or run the other way;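 note: the enzyme is Sfp with the accession as filed and its product quenches rhodamine fluorescence; potency is the fitted concentration of half-maximal effect; 0% = enzyme reaction without inhibitor and -100% = no enzyme wells; top concentration of the series not given in the record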
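Sfp 15 nM + cpd, 15 min RT; start w/ rhodamine-CoA 5 uM, BHQ-2-YbbR 12.5 uM (final); 50 mM Hepes pH 7.6, 10 mM MgCl2, 0.01% NP-40, 0.01% BSA; read 525/598 nm at 0 and 30 min.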
ClpP mod = qHTS Assay for Activators of ClpP | 340,000 tested, 1.9% active | AID 651965, 2013 | ATP-dependent Clp protease proteolytic subunit (Bacillus subtilis (strain 168)), P80244 | purified B. subtilis ClpP, FRET peptide cleavage, 20 min | Potency, µM (top dose mostly 57.5 µM), for inactives: top-dose activity change, negative = active; active = well fitted falling curve with a large enough effect; inconclusive = small, poorly fitted or top-dose-only effect; inactive = no such curve, though single readings can be large or run the other way; note: potency is the fitted concentration of half-maximal effect; the source files actives as falling curves though it sought activators and does not explain the sign; nearly all actives have a fitted effect of over 65% in size; many hits overshoot -100%
Target sequence (P80244 whole entry, looked up): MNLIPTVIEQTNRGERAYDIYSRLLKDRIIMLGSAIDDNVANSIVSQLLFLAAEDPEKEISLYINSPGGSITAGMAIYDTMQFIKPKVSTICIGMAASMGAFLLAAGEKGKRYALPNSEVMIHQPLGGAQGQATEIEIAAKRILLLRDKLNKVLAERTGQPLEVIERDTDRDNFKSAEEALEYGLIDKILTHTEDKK
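FRET quenching reversal measured ClpP activation: 10 microg/mL B. subtilis ClpP at pH 8 with the FRET-FV decapeptide, read at 430 nm after 320 nm excitation. The 20-min minus 0-min signal was scaled between DMSO/no-enzyme wells and ADEP (5.8 microM final).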
gsp antag = qHTS for Antagonists of gsp, the Etiologic Mutation Responsible for Fibrous Dysplasia/McCune-Albright Syndrome: qHTS. gsp-mutant cells, cAMP HTRF, 30 min; control for the full effect not named in the record. Potency, µM (highest dose often 76.9 µM), inactives show at the highest dose activity change, negative = inhibition, actives largely listed as inhibitors. 340,000 tested, 0.4% active. AID 624288, 2012; active = falling curve of any shape with a large fitted effect; inconclusive = falling curve, mostly with a smaller effect; inactive = flat or rising curve; cell line not stated here;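 note: intracellular cAMP measured with PDE inhibitor Ro 20-1724 present during compound exposure; potency is the fitted concentration of half-maximal effect; % is set by controls: 0 for no effect and ±100 for the full control effect; nearly all actives have a fitted effect of over 65% in size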
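HTRF cAMP read-out (cAMP-d2 plus anti-cAMP antibody-K in lysis buffer, 30 min RT). Before lysis, cells are exposed to compounds with […] for 30 min at 37C in DPBS containing Ca/Mg, BSA and Tween 20.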
D2 agonist = Beta-Arrestin HTS for Positive Allosteric Modulators of the Human D2 Dopamine Receptor: Agonists; DiscoveRx PathHunter D2 beta-arrestin, luminescence, 90 min; 100% = 57 uM dopamine signal; activation, % (no concentration beside the values); 360,000 tested, 0.084% active; in the data active = activation above about 40%; inconclusive = about 15% to 40%; inactive = below about 15%; note: compound concentration not given in the record; the text of the record calls up to 30% inactive
Target sequence (P14416 whole entry, looked up): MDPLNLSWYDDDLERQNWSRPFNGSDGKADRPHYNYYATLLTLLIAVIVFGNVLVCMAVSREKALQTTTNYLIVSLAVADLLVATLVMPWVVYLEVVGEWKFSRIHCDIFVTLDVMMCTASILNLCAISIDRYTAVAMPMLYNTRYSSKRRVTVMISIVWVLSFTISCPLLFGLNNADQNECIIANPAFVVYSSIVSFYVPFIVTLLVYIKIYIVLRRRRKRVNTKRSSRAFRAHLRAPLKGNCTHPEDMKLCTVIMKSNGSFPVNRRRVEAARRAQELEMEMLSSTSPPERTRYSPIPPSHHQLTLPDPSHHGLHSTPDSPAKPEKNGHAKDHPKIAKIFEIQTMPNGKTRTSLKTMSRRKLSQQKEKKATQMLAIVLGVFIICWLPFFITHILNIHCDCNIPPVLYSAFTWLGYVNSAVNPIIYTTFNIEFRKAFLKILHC
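DiscoveRx PathHunter D2 beta-arrestin cells (2,100/well) attached overnight, then compound-stimulated 90 min at 37 C in HBSS/10 mM HEPES/0.1% Tween-20 buffer; beta-galactosidase complementation read by luminescence after 1 h at ambient temperature. Dopamine 57 uM final (EC100) as control.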
gsp ag = qHTS for Agonist of gsp, the Etiologic Mutation Responsible for Fibrous Dysplasia/McCune-Albright Syndrome: qHTS. AID 624287, 2012. Potency, µM (doses to about 76.9 µM), for the others: at the top dose activation (cAMP increase), most hits filed as activators. gsp mutant cells, cAMP HTRF, 30 min; control for the full effect not named in the record. 340,000 tested, 0.13% active; active = well fitted activation curve with a large enough effect; inconclusive = small, poorly fitted or top-dose-only effect, or another doubt; inactive = no such curve, though single readings can be large or run the other way; cell line not stated here;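 note: phosphodiesterase inhibitor Ro 20-1724 added with compounds to block cAMP breakdown; potency is the fitted concentration of half-maximal effect; nearly all actives have a fitted effect of over 60% in size; about a fifth of the inactives were tested at one dose only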
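Cells in DMEM/10% FBS with G418 were pretreated with compounds in DMSO plus […] (300 uM stock) for 30 min at 37C. cAMP was measured by HTRF (cAMP-d2 plus anti-cAMP antibody-K) after 30 min at room temperature.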
Menin-MLL FL inh = qHTS Assay for Inhibitors Targeting the Menin-MLL Interaction in MLL Related Leukemias: Competition With Fluorescein Labeled MLL-derived Peptide; Fluorescence polarization, fluorescein-MLL peptide displacement from menin; FP activity change, % at 61.4 µM; 290,000 tested, under 10 active; AID 1766, 2009; inconclusive = falling polarisation curve, or a change in total fluorescence; inactive = total fluorescence flat and polarisation flat or rising; no compound was filed as active; the % refers to the polarisation; negative = inhibition;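 note: % of control where 0% means no effect; inhibitors lower the polarisation; unlabelled MLL peptide was the positive control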
The depositor's hits bear a star; ? = inconclusive; nt = not tested or not shown; [ ] = remark or other dose.

SMILES	PINK1 expr mod	Sfp inh	ClpP mod	gsp antag	D2 agonist	gsp ag	Menin-MLL FL inh
O=C1c2ccccc2NC(c2cccc(Cl)c2)N1N=C1CCCCCC1 (stereo unspecified)	-0.5%	8%	20µM*	-1%	-3.1	?	3.9
CCCCC(=O)Nc1nnc(C2=COCCO2)o1	0.7%	?	nt	6%	-2.6	1%[15.4 µM]	2.2
O=C(Nc1ccc2oc(=O)ccc2c1)c1cccnc1	3.1%	21%	?	12%	-1.5	-36%[inhibitor]	-3.4
COCc1ccc(-c2c(-c3ccsc3)oc(=O)c3cc(OC)c(OC)cc23)cc1	5.4%	nt	32µM*	-6%	-3.4	8%	nt
O=C(NC1CC1)C1=NOC(CNc2ncc(C(F)(F)F)cc2Cl)C1 (stereo unspecified)	1.0%	13%	1.0%	0%	-2.4	15%	2.1
CCOC(=O)Oc1c(OC)cc(C(=O)O[C@@H]2C[C@@H]3CN4CCc5c([nH]c6cc(OC)ccc56)[C@H]4C[C@@H]3[C@H](C(=O)OC)[C@H]2OC)cc1OC	3.5%	nt	-0.2%	-20%	7.9	nt	nt
CC1=C(C(=O)N(C(C)C)C(C)C)CC(CC(=O)NCc2ccco2)C(=O)N1Cc1ccc(C(C)(C)C)cc1 (stereo unspecified)	1.2%	nt	3.7%	nt	-2.3	nt	nt
Cc1ccc(S(=O)(=O)Nc2cccc(-c3ccc(N4CCCCCC4)nn3)c2)cc1	0.8%	-6%	-5.9%	-11%	-5.7	-5%	-0.9
CCC(C)N(C(=O)CSc1nnc(NC(C)C)s1)C1CCS(=O)(=O)C1 (stereo unspecified)	-1.5%	nt	-2.4%	7%	-0.8	-2%	nt
CC1(CCc2ccccc2)NC(=O)N(CC(=O)Nc2ccccc2)C1=O (stereo unspecified)	-0.2%	10%	nt	-1%	-0.9	0%[15.4 µM]	4.6
CCOc1c(Br)cc(C2NS(=O)(=O)N=C3CCCCCN32)cc1OC (stereo unspecified)	0.7%	-9%	3.1%	-1%	-0.7	-26%	-3.4
COC(=O)CP(=O)(c1ccccc1)c1ccccc1	2.3%	5%	-1.8%	-1%	-1.4	-54%[inhibitor]	0.9
COc1ccc(CNC(=O)CN(C)S(=O)(=O)c2ccc(Br)s2)cc1	-0.9%	20%	nt	-6%	5.9	-63%[inhibitor]	3.3
CCN(C[C@H]1N[C@@](CC)(C(=O)OC)[C@H]2C(=O)N(C)C(=O)[C@@H]12)S(=O)(=O)c1ccc(C(C)(C)C)cc1	1.5%	nt	1.2%	-20%	2.8	nt	nt
C=CCNC(=O)/C(=C/c1ccco1)NC(=O)c1ccc(Br)o1	0.1%	10µM*	-3.5%	12%	-0.3	-12%	?
Cc1ccccc1Nc1nc(Nc2ccccc2C)nc(SC2=NCCS2)n1	11%[38.3 µM]	16%	-1.7%	-9%	-1.8	24%	1.7
COCCN(C(=O)COC(=O)C1COc2ccccc2O1)c1c(N)n(Cc2ccccc2)c(=O)[nH]c1=O (stereo unspecified)	2.0%	nt	-0.8%	5%	-5.2	9%	nt
Cc1ccc(NC(=O)Cn2c(O)c(N=NC(=O)c3cc4ccccc4cc3O)c3ccccc32)cc1	-4.4%	-16%	-1.6%	8%	-7.5	20%	6.6
COC(=O)CCN(C(=O)c1ccc2c(c1)OCO2)c1ccccn1	0.9%	27%	-2.7%	3%	-0.5	13%	-1.0
Cc1onc(-c2ccccc2Cl)c1C(=O)Nc1ccc(OCC(=O)N2CCOCC2)cc1	20%[38.3 µM]	17%	-4.2%	-4%	-0.9	2%	-0.2
CCn1cnc2cc(NCc3nc4ccccc4n3C)ccc21	nt	2%	-13%	-6%	-0.8	-7%	4.0
COc1ccc(-c2cc3ccccc3cn2)cc1	-1.8%	nt	4.4%	-18%	-2.8	-28%	nt
COc1cccc(NC(=O)CN(c2ccccc2OC)S(=O)(=O)c2cccs2)c1	2.5%	nt	-1.4%	?	5.7	-6%	nt
COc1cccc(/C=N/NC(=O)c2cc3c(OC)cccc3[nH]2)c1O	40µM*	-2%	-5.3%	4%	-1.9	-1%	1.8
CC(C)(C)OC(=O)N1CCC[C@H]1C(=O)Nc1ccc(C#N)cc1	1.0%	11%	nt	9%	-5.2	5%	0.1
Going on with the list:
SMILES	PINK1 expr mod	Sfp inh	ClpP mod	gsp antag	D2 agonist	gsp ag	Menin-MLL FL inh
O=C(c1cc2ccccc2o1)N1CCN(Cc2nc3ccccc3s2)CC1	0.0%	nt	-1.6%	nt	-1.7	-91%[inhibitor]	nt
CCN(CC)C(=O)C1=C(C)N(Cc2ccc(F)cc2)C(=O)C(CC(=O)NC(c2ccccc2)c2ccccc2)C1 (stereo unspecified)	2.0%	nt	1.7%	nt	-0.2	6%	nt
O=C(Nc1c(C(=O)C2CC2)oc2ccccc12)c1ccc(Cl)cc1	8.8%	34%[activator]	-5.0%	9%	-0.1	-9%	1.6
COc1cc2c(cc1OC)C(c1ccccc1F)OC(=O)C2 (stereo unspecified)	-0.2%	3%	-3.0%	0%	-0.6	-49%[inhibitor]	2.9
COc1ccc(NC(=O)N2CCN(c3cccc(C(F)(F)F)c3)CC2)cc1	1.8%	18%	0.2%	17%	1.3	4%	0.9
O/N=C/c1ccnc(SCc2ccc(Cl)cc2)n1	2.8%	-12%	0.6%	13%	0.3	-8%[15.4 µM]	-1.2
COc1ccc(/C=C/C(=O)OCC(=O)c2cc(C)ccc2C)cc1	9.9%	nt	-2.0%	nt	-1.0	3%	nt
CCN(CC)C(=O)CSc1nc2c(sc(=S)n2-c2ccccc2)c(=O)n1-c1ccc(OC)c(OC)c1	5.7%	7%	2.8%	?	5.0	-12%	1.6
CCCCOc1ccc(C2CC(=O)N(C)C2=O)cc1 (stereo unspecified)	1.9%	13%	-2.1%	4%	0.3	0%	1.2
CC1(C(=O)NS(=O)(=O)C2CC2)CCCN(C(=O)COc2ccccc2)C1 (stereo unspecified)	0.3%	nt	0.4%	nt	2.3	nt	nt
CCOc1ccccc1Nc1nc2ccccc2n2cnnc12	2.0%	10%	?	0%	-6.0	-24%	1.6
Cn1c(=O)[nH]c(=O)c2c1nc(Sc1nc3ccccc3s1)n2Cc1ccccc1	-1.9%	2%	-2.1%	-8%	-10	12%	0.5
COc1ccc(CNS(=O)(=O)c2cccc(S(=O)(=O)N3CCOCC3)c2)cc1	-7.7%[38.3 µM]	10%	-0.3%	-2%	0.3	4%	-1.3
O=c1cc(COc2ncnc3ccccc23)nc2sccn12	0.3%	14%	?	12%	-5.1	?	-5.7
Cc1ccc(S(=O)(=O)N2CC(O)C[C@H]2C(=O)OCC(=O)Nc2ccc(N3CCOCC3)cc2)cc1C (stereo partly specified)	0.0%	nt	-13%	7%	9.9	3%[15.4 µM]	nt
O=C(c1ncc[nH]1)c1ccccc1Cl	-1.2%	4%	0.7%	20%	2.6	0%	11
CCOC(=O)C1(CCCc2ccccc2)CCN(C(=O)c2cc(C)nn2CC)CC1	3.7%	0%	0.7%	-17%	-1.2	-9%	-2.6
CC(C)n1cc(CN2CCC(C(=O)Nc3ccc(Oc4ccccc4F)cc3)CC2)cn1	-0.6%	-12%	0.6%	26%	0.1	9%	-6.0
Cc1cc(C)c(S(=O)(=O)N2CCCC2=O)cc1N(C)S(C)(=O)=O	1.4%	15%	2.2%	11%	-6.4	10%	-5.1
COc1ccc(/C=C/C(=O)Nc2c(C)nn(C)c2C)cc1COc1ccc(Br)cc1	23%	8%	-3.1%	8%	-0.1	-9%	2.1
O=C(Cn1cccn1)N1CCCC(N2CCN(Cc3ccc4c(c3)OCO4)CC2)C1 (stereo unspecified)	-1.8%	8%	-0.3%	8%	-5.7	1%	nt
Cc1ccc(F)cc1NC(=O)N1CCN(C2c3ccccc3-c3ccccc32)CC1	-0.6%	4%	0.8%	-16%	-7.9	1%	1.8
COc1cccc(Oc2ccc(N/C=C/C(=O)C(C)(C)C)cc2)c1	2.4%	?	nt	-4%	-0.3	-10%[15.4 µM]	2.4
Cc1ccccc1N1CCN(C2CCCN(C(=O)CSc3ccccn3)C2)CC1 (stereo unspecified)	1.7%	nt	-0.5%	nt	-4.2	1%	nt
O=C(O)CCCNC(=O)/C=C/c1ccco1	-0.5%	13µM*	-3.4%	8%	-6.2	6%[15.4 µM]	?
COCCn1c(SCc2ccccc2Cl)nc2c1c(=O)[nH]c(=O)n2C	1.3%	-17%	0.9%	-5%	2.3	16%	2.8
Cc1ccc(C(C)C)c(OCC(O)CNC2CCCC2)c1 (stereo unspecified)	8.6%	3%	0.2%	16%	4.1	13%	-3.0
CC/C(=N\NC(=O)c1ccc(CN(C)S(=O)(=O)c2ccc(C)cc2)cc1)c1ccc(OC(F)F)cc1	2.4%	30%	-1.1%	7%	0.8	-13%	3.9
COC(=O)c1cc(S(=O)(=O)N2CCCC(C)C2)cn1C (stereo unspecified)	2.5%	15%	-1.9%	2%	5.4	3%	nt

Arranged by SMILES length (rising): 3 of the compounds above.
SMILES	PINK1 expr mod	Sfp inh	ClpP mod	gsp antag	D2 agonist	gsp ag	Menin-MLL FL inh
O/N=C/c1ccnc(SCc2ccc(Cl)cc2)n1	2.8%	-12%	0.6%	13%	0.3	-8%[15.4 µM]	-1.2
O=C(Cn1cccn1)N1CCCC(N2CCN(Cc3ccc4c(c3)OCO4)CC2)C1 (stereo unspecified)	-1.8%	8%	-0.3%	8%	-5.7	1%	nt
Cn1c(=O)[nH]c(=O)c2c1nc(Sc1nc3ccccc3s1)n2Cc1ccccc1	-1.9%	2%	-2.1%	-8%	-10	12%	0.5
